Screening results as filed in PubChem.
GLA inh pH 4.5 = alpha-galactosidase A (human) inhibition, pH 4.5 | P06280 | purified enzyme, 4-MU-alpha-Gal fluorescence, pH 4.5 | activity change, negative = inhibition, % at 105 µM | 230,000 tested, under 10 active; inconclusive = small, poorly fitted or top-dose-only inhibition, or a rising curve; inactive = flat fitted curve, though single readings scatter; no compound was filed as active;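 also: 0% = full activity with enzyme and -100% = basal without enzyme; dose as in the result columns while the protocol names 77 µM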
Rango dissoc inh = inhibition of RanGTP-driven Rango-importin beta dissociation; Biochemical FRET Rango-importin beta, RanGTP-induced dissociation; Potency, µM (series often up to 46.1 µM), for inactives: at the top dose activity change, negative = inhibition; hit rate 0.071% among 340,000; active means falling FRET ratio curve, often poorly fitted, with flat reads before Ran was added; inconclusive means other falling curves, or compound fluorescence or quenching; inactive means flat or rising ratio curve;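 also: potency is read from the fitted curve at half-maximal effect; % of control where 0% means no effect; nearly all actives have a fitted effect of over 45% in size; -100% = wells without RanGTP and RCC1; the record marks most hits as doubtful in a second field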
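Quantitative HTS using a FRET biosensor: 0.1 uM Rango, 0.25 uM importin beta, 0.6 uM Ran, 2 mM GTP, 0.2 uM RCC1 final, PBS with DTT, Tween-20 and BSA. Post-read taken 45 min after Ran addition.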
miR-21 reporter = raises the signal of a miR-21 reporter | AID 2288 | 340,000 tested, under 10 active | Potency, µM (doses to about 38.3 µM), without a hit: top-dose reporter change, positive = more light | HeLa miR-21 FLuc reporter, luciferase, 48 h; active = well fitted rising curve with a large enough effect; inconclusive = small, poorly fitted or top-dose-only effect; inactive = no such curve, though single readings can be large or run the other way;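 also: % of control where 0% means no effect; miR-21 action dims this reporter so a rising signal means less miR-21 action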
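HeLa cells stably expressing CMV-driven firefly luciferase with a downstream miR-21 binding sequence, endogenously expressing miR-21, were treated with titrations (up to about 40uM final) for 48 hours at 37 degree Celsius. Luciferase luminescence was read after lysis.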
Rango complex inh = inhibitors of Rango-importin beta complex formation; Q14974; Rango CFP/YFP FRET sensor + importin beta, 45 min; Potency, µM (highest dose often 92.2 µM), inactives show top-dose inhibition of complex formation; hit rate 0.031% among 340,000; active = rising FRET ratio curve, often small or poorly fitted; inconclusive = mostly compound fluorescence or quenching in the first reads; inactive = flat curves in all reads;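 also: potency is read from the fitted curve at half-maximal effect; 0% = DMSO wells and 100% = buffer wells lacking importin beta; nearly all actives have a fitted effect of over 15% in size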
Target sequence (Q14974 whole entry, looked up): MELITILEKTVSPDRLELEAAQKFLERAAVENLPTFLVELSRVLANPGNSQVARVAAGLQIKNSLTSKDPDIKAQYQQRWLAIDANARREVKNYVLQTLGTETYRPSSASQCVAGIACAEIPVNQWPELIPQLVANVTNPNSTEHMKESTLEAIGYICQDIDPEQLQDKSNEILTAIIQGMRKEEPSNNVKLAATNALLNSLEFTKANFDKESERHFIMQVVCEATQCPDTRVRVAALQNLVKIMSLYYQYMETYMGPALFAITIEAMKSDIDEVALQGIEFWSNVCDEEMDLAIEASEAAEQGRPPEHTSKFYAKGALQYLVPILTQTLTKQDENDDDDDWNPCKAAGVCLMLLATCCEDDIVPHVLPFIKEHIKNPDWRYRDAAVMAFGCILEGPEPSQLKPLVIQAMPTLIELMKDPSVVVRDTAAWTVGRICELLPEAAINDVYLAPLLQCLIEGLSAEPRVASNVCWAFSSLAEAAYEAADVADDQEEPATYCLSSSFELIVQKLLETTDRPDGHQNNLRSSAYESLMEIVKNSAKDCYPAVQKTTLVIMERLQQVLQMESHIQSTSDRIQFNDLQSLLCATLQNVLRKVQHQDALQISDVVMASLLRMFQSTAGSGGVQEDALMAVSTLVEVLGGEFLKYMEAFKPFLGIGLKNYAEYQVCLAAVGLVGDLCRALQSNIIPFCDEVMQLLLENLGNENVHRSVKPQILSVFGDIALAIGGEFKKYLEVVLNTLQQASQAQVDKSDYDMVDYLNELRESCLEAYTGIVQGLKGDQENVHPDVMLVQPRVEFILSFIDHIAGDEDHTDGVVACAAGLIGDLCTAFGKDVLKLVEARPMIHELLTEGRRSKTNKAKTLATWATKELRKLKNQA
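Inhibition scored from the CFP 486 nm/YFP 530 nm FRET ratio 45 min after adding 0.125 microM importin beta to 50 nM Rango biosensor preincubated 5 min with compound (room temperature, PBS with DTT, Tween-20, BSA). No-importin wells as positive control.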
Numbers without * were called inactive; ? = inconclusive; . = not tested or not shown.

GLA inh pH 4.5,Rango complex inh,miR-21 reporter,Rango dissoc inh,SMILES
0.2,2.6%,-41.7%,2.0%,Cc1cnc(NC(=O)CC2CCCC2)s1
.,-3.4%,.,11.0%,O=C(CCN1C(=O)c2ccccc2S1(=O)=O)Nc1cccc(F)c1
0.7,-2.2%,-4.1%,-7.4%,CC1CCN(C(=S)c2cn(Cc3ccc(F)cc3)c3ccccc23)CC1
.,-0.8%,.,-28.2%,C[C@H](NCCc1ccc(O)cc1)[C@H](O)c1ccc(O)cc1
.,-4.4%,-5.5%,0.2%,COc1cc(NC(=O)CSc2nnnn2C2CCCC2)cc(OC)c1
12.9,-0.1%,-0.5%,-0.1%,CC(=O)N1N=C(c2ccc(C)o2)CC1c1cccc(F)c1 (configuration not stated)
5.5,7.6%,?,-8.1%,CN1CCc2c1nc1ccccc1c2N=C1CCCN1Cc1ccccc1
.,-0.4%,20.4%,7.5%,O=C(CSc1ccc(-c2cccnc2)nn1)Nc1ccc(F)c(F)c1
-0.7,0.6%,-1.9%,-2.4%,CN(C)N1C(N)=C(C#N)C(c2ccsc2)C2=C1CC(C)(C)CC2=O (configuration not stated)
3.8,2.8%,-1.2%,0.6%,NC(=O)NC(=O)CSc1ccccc1
-5.7,-1.8%,-32.4%,8.1%,COc1ccc(NC(=O)c2csc(Cc3ccccc3)n2)cc1
.,-0.1%,.,0.8%,CCCC(C)NC(=O)Cc1ccc(S(=O)(=O)N2CCOCC2)s1 (configuration not stated)
.,0.9%,-0.7%,13.1%,O=C(NCCCn1ccnc1)/C(=C/c1ccc(Cl)cc1)NC(=O)c1ccccc1
6.3,-6.6%,-4.9%,1.7%,CC(C)CNC(=O)C1CCN(c2ccc(S(=O)(=O)N3CCOCC3)cc2[N+](=O)[O-])CC1
.,0.0%,2.2%,1.0%,O=C(O)CN1C(=O)CSC1=S
-8.1,0.1%,10.6%,1.6%,Cc1ccc(NC(=O)C2(N(C(=O)Cn3nnnc3N)c3ccc(C)cc3)CCCCC2)cc1
.,-0.7%,.,13.9%,CC1CCCC(C)N1C(=O)COC(=O)COc1ccc(C#N)cc1 (configuration not stated)
.,3.1%,-39.3%,7.9%,COc1cccc(CNc2nc3ccccc3n2C)c1O
5.5,0.0%,-3.9%,-8.3%,Cn1c(COc2ccc3ccccc3c2)nnc1SCC(N)=O
-7.5,-0.2%,-4.4%,-9.6%,CC(C)c1ccc(/C=N/NC(=O)C(=O)NCCCN2CCOCC2)cc1
-1.0,?,13.7%,2.7%,CCN(CC)c1ccc(/C=N/NC(=O)CCC(=O)NCc2ccccc2)c(O)c1
?,-3.3%,-25.3%,-11.8%,CCCn1c(=O)[nH]c(=O)c2c(C(=O)OCC)cc(-c3cccs3)nc21
.,-0.9%,.,31.4%,CC(=O)NC12CC3CC(C1)CC(C(=O)NCC(=O)Nc1c(C)cc(C)cc1C)(C3)C2
-10.8,3.4%,-71.4%,1.3%,Cc1ccc(C(=O)O/N=C(\N)c2cccnc2)cc1[N+](=O)[O-]
.,-2.3%,1.3%,6.7%,CN(C)S(=O)(=O)c1cccc(C(=O)Nc2n[nH]c(C(F)(F)F)n2)c1
11.9,0.1%,-0.9%,5.9%,c1ccc(C2CC(c3cccs3)Nc3nnnn32)cc1 (configuration not stated)
-2.5,-2.2%,16.8%,1.6%,O=C1CCN(S(=O)(=O)c2ccccc2)CCN1CCOCc1ccc(C(F)(F)F)cc1
9.7,-0.3%,-25.8%,-8.2%,COc1cccc(NC(=S)Nc2ccc(O)cc2)c1
.,-3.7%,-4.4%,-16.3%,Cc1cc(=O)oc2cc(OCC(=O)N(C)C3CCS(=O)(=O)C3)c(Cl)cc12 (configuration not stated)
.,4.2%,16.9%,15.0%,O=C(N/C(=C\c1ccccc1)C(=O)N1CCCCC1)c1ccc(Br)o1
6.1,-0.8%,7.7%,-5.7%,Clc1ccc(CNc2nnnn2-c2ccccc2)c(Cl)c1
?,?,2.3%,-13.2%,N#CCSc1n[nH]c2nc3c(c(=O)n12)C1(CCCCC1)Cc1ccccc1-3
-4.5,-1.5%,0.3%,13.8%,CCOP(=O)(OCC)c1nc(-c2ccc(Cl)cc2)oc1NCc1ccccc1
-15.8,-1.8%,0.0%,-11.9%,O=C1C2C3C=CC([C@@H]2C(=O)N1C1CCCCC1)[C@H]1C(=O)N(C2CCCCC2)C(=O)C31 (some centres not stated)
0.7,-7.0%,0.7%,-0.9%,CCOc1ccc(N2C(=O)C3ON(C)C(c4ccc([N+](=O)[O-])cc4)C3C2=O)cc1 (configuration not stated)
.,1.1%,-1.8%,-13.4%,Cc1[nH]c2ccc(C(=O)N3CCN(c4ccccn4)CC3)cc2c1C

An excerpt of these results, with each value named.
N#CCSc1n[nH]c2nc3c(c(=O)n12)C1(CCCCC1)Cc1ccccc1-3
  GLA inh pH 4.5: ?	Rango complex inh: ?	miR-21 reporter: 2.3%	Rango dissoc inh: -13.2%
Clc1ccc(CNc2nnnn2-c2ccccc2)c(Cl)c1
  GLA inh pH 4.5: 6.1	Rango complex inh: -0.8%	miR-21 reporter: 7.7%	Rango dissoc inh: -5.7%
Cc1cc(=O)oc2cc(OCC(=O)N(C)C3CCS(=O)(=O)C3)c(Cl)cc12 (configuration not stated)
  GLA inh pH 4.5: .	Rango complex inh: -3.7%	miR-21 reporter: -4.4%	Rango dissoc inh: -16.3%
O=C1C2C3C=CC([C@@H]2C(=O)N1C1CCCCC1)[C@H]1C(=O)N(C2CCCCC2)C(=O)C31 (some centres not stated)
  GLA inh pH 4.5: -15.8	Rango complex inh: -1.8%	miR-21 reporter: 0.0%	Rango dissoc inh: -11.9%

(continued)
GLA inh pH 4.5,Rango complex inh,miR-21 reporter,Rango dissoc inh,SMILES
-4.8,3.9%,16.3%,-11.7%,CC(C)(C)[C@@H]1C=C(C(=O)Nc2ccccc2)O[C@H](OCc2ccc(CO)cc2)C1
.,-3.7%,-3.3%,-1.1%,O=C(Nc1cccc(NC(=O)c2ccccc2Cl)c1)c1ccc(F)cc1
-6.2,0.4%,-5.9%,12.0%,O=C1Nc2ccc(Cl)cc2C(=O)C1(F)c1ccccc1 (configuration not stated)
7.9,-0.1%,-7.6%,-16.0%,c1ccc(N2CCCCC2)c(NC2=NCCC2)c1
0.6,3.9%,-24.3%,34.3%,NS(=O)(=O)c1ccc(CNC(=O)NC23CC4CC(CC(C4)C2)C3)cc1
2.6,-2.0%,21.6%,-3.7%,COCc1nnc(NC(=O)c2ccc(S(=O)(=O)N3CCCc4ccccc43)cc2)o1
-1.0,1.0%,11.5%,23.4%,Cn1c(C(=O)N2CCCC(C(=O)N3CCN(C(=O)c4ccco4)CC3)C2)cc2sccc21 (configuration not stated)
3.5,-1.1%,0.0%,9.0%,Cc1ccc(NC(=O)COC(=O)CCc2nc3ccccc3c(=O)[nH]2)c(Br)c1
4.3,.,-7.2%,.,O=C(Nc1ccc(Cl)c([N+](=O)[O-])c1)Nc1nc2ccccc2s1
-4.2,-8.9%,-4.7%,0.5%,CCOC(=O)c1c(C)c(C(=O)NC(C)COC)c(C)n1CC (configuration not stated)
2.4,1.1%,19.3%,1.2%,COc1ccc(NC(=S)NCCC(c2ccccc2)c2ccccc2)c(OC)c1
-15.6,-0.2%,-2.6%,16.2%,Cc1ccoc1C(=O)NCc1occc1C(=O)O
2.2,?,-0.7%,1.3%,O=C(CNC(=O)OCc1ccccc1)NCC(=O)N1CCCC1C(=O)OCc1ccccc1 (configuration not stated)
.,1.9%,3.3%,2.7%,O=C(NCC1CCCO1)c1cccc(Oc2c(Cl)cccc2[N+](=O)[O-])c1 (configuration not stated)
-3.2,3.2%,-58.7%,-1.2%,CC(C)c1ccc(NC(=O)c2cccc(Br)c2)cc1
.,-1.6%,-0.9%,-4.7%,CCN(CCN1CCCC1)C(=O)c1cc(COc2ccccc2SC)on1
4.5,3.0%,0.3%,-5.3%,CC(OC(=O)c1cccnc1)C(=O)NCc1ccc2c(c1)OCO2 (configuration not stated)
-2.6,3.1%,-1.1%,-3.8%,CCCS(=O)(=O)N1CCCC(C(=O)NCCN(CC)CC)C1 (configuration not stated)
-0.1,0.5%,-4.1%,10.6%,CCOc1ccc(N2C(=O)c3cccnc3C2Nc2ccc(C)cc2)cc1 (configuration not stated)
-1.0,4.2%,-15.5%,16.8%,O=C(Nc1cccc(Cl)c1)c1ccncc1
-8.2,0.5%,?,28.8%,Cc1nn(Cc2ccc(Cl)cc2)c(C)c1NC(=O)c1noc2c1CCc1ccccc1-2
-14.7,?,-7.6%,-9.3%,Cc1nc(C(C)N(C)Cc2c(C(=O)N3CCCCC3)nc3c(C)cccn23)c(C)s1 (configuration not stated)
6.5,4.6%,-35.0%,20.3%,COc1ccc(C)cc1NCc1cc(=O)oc2cc(-c3ccccc3)c(O)cc12
6.9,-0.7%,0.5%,1.4%,CCN1CCCC1CNC(=O)C(=O)NC (configuration not stated)
.,4.2%,-0.3%,7.0%,O=C1COc2ccc(S(=O)(=O)NCCc3ccccc3)cc2N1
.,-1.9%,0.7%,2.1%,COc1ccccc1-c1c(C)nn2c(N3CCOCC3)cc(C)nc12
-11.0,6.5%,-2.3%,13.4%,COc1ccccc1CCc1nnc(CCC(=O)NCCCOc2cccnc2)o1
.,2.5%,1.9%,2.8%,CCOc1cc(/C=C/c2cccc[n+]2C)ccc1O
-0.8,-2.0%,-1.2%,-2.7%,COC(=O)C(NC(=O)c1c(C)nn(C)c1Cl)c1ccccc1 (configuration not stated)
4.4,-3.7%,0.9%,-9.2%,COc1ccccc1/C=C/CN1CCN(Cc2ccc(C)o2)C(CCO)C1 (configuration not stated)
4.2,3.1%,-5.7%,-14.2%,CCc1sc(NC(=O)c2cc3ccccc3oc2=O)nc1-c1cccs1
2.9,-0.6%,-7.1%,-1.6%,COc1ccc(OCC2CNC(=O)O2)cc1 (configuration not stated)
.,0.3%,8.1%,-19.0%,COc1ccc(CNC(=O)c2ccc3ccccc3n2)cc1OC
.,2.3%,2.7%,-3.4%,Cc1cccc(S(=O)(=O)NCCNS(=O)(=O)c2cccc(C)c2)c1
.,0.2%,.,0.9%,CCOc1ccc(NC(=O)CN(C)C(=O)c2cn3ccccc3n2)cc1OCC
.,0.5%,19.3%,1.7%,COc1ccccc1N1CCN(C(=O)c2onc(C)c2Cl)CC1
0.5,0.0%,13.6%,-2.6%,COc1ccc2sc(NC(=O)c3ccco3)nc2c1
3.8,1.3%,-7.0%,27.8%,Cc1ccsc1/C=N/n1c(-c2ccccn2)n[nH]c1=S
-1.1,-3.2%,-2.4%,0.6%,CCOC(=O)CNC(=O)c1nn(-c2ccc(OCC)cc2)c(=O)c2ccccc12
-9.6,0.1%,4.2%,-2.0%,COc1ccccc1N1CCN(C(=O)C2CCN(S(=O)(=O)c3ccc(C)cc3)CC2)CC1
-21.9,?,-0.1%,?,COc1cc(/C=C2\C(=N)N3N=CSC3=NC2=O)cc(Br)c1OC(=O)c1ccco1
.,5.2%,-0.8%,-0.2%,CC(Oc1cc2oc(=O)c3c(c2cc1Cl)CCC3)C(=O)NCc1ccncc1 (configuration not stated)
-5.4,3.1%,-17.8%,0.8%,O=C(CCn1c(=O)oc2ccccc21)N1CCCCCC1
-10.7,-1.6%,-21.2%,5.4%,CC1Cc2cc(/C=C3/SC(=S)NC3=O)ccc2O1 (configuration not stated)
-2.0,-3.7%,-2.1%,-20.1%,CN(C(=O)c1c(Cl)cnn1C)C12CC3CC(CC(C3)C1)C2
-15.8,?,?,-1.1%,CCCCN1C=CC(=C2C(=O)c3ccccc3C2=O)C=C1
4.8,3.3%,11.5%,-3.3%,Cc1cc2c(cc1C)[n+](C)cn2CC(O)COCC1CC=CCC1 (configuration not stated)
.,-0.1%,.,6.6%,CC(OC(=O)c1cccc([N+](=O)[O-])c1)C(=O)N1CCc2ccccc21 (configuration not stated)

Quoted from the listing.
Reading for `CC(OC(=O)c1cccc([N+](=O)[O-])c1)C(=O)N1CCc2ccccc21` (configuration not stated) in Rango complex inh: -0.1%
Reading for `CCCCN1C=CC(=C2C(=O)c3ccccc3C2=O)C=C1` in Rango dissoc inh: -1.1%

Some of the compounds tested; rates above refer to the full screens.
